HIV Env fusion – HIV envelope-mediated fusion inhibition. 360,000 tested, 1.1% active. inhibition, % at 12.3 µM. HeLa-JRFL Env/CEM21 cell fusion, luciferase. AID 651610;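 active = mean replicate inhibition score of at least 50 and every replicate individually at or above 50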;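 note: 0% = plate neutral controls and 100% = maraviroc near 300 nM; one replicate is shown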
Yeast UUG start – yeast start codon fidelity modulation | S. cerevisiae UUG-firefly luciferase reporter, luminescence/redox ratio | activity score, % at 18.7 µM | 350,000 tested, 0.13% active | AID 602363;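 active = replicate mean at a twofold rise or more, about +100% in these data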;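 note: firefly luciferase made from a UUG start codon reports start codon fidelity; reporter light over untreated wells divided by growth signal over untreated wells; some hits fall short of that in this replicate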
The depositor's hits bear a star; [ ] = another dose, or the depositor's remark. This is a subset; rates above refer to the full screens.

SMILES | HIV Env fusion | Yeast UUG start
COc1ccc(NC(=O)N(C)C[C@@H]2Oc3ccc(NS(=O)(=O)c4ccc(OC)cc4)cc3C(=O)N([C@H](C)CO)C[C@@H]2C)cc1 | -7[16.7 µM] | 0
C[C@@H]1CN([C@H](C)CO)C(=O)c2cc(-c3cccc(C#N)c3)cnc2O[C@H]1CN(C)C(=O)c1cnccn1 | -18[16.7 µM] | 0
COCCNC(=O)C[C@@H]1C=C[C@@H](NC(=O)NC2CCCC2)[C@H](CO)O1 | 12[16.7 µM] | -18
CCCC#Cc1ccc2c(c1)O[C@@H](CN(C)Cc1cccnc1)[C@@H](C)CN([C@@H](C)CO)S2(=O)=O | 2[16.7 µM] | 10
COc1ccccc1C#Cc1ccc2c(c1)O[C@@H](CN(C)Cc1cncnc1)[C@@H](C)CN([C@@H](C)CO)S2(=O)=O | 24[16.7 µM] | 7
COCCNC(=O)C[C@@H]1CC[C@H]2[C@@H](COC[C@H](O)CN2C(=O)Nc2ccc3c(c2)OCO3)O1 | -37[16.7 µM] | -6
C[C@H](CO)N1C[C@H](C)[C@H](CN(C)CC2CC2)Oc2ccc(NS(=O)(=O)c3cccs3)cc2C1=O | 9[16.7 µM] | 2
N#C[C@@H]1[C@H](c2ccc(C3=CCCC3)cc2)[C@H](CO)N1C(=O)NC1CCCC1 | 47[16.7 µM] | 13
CC(=O)N(C)C[C@H]1Oc2cc(-c3ccc(C#N)cc3)ccc2S(=O)(=O)N([C@H](C)CO)C[C@@H]1C | 8[16.7 µM] | 2
O=C(Nc1ccccc1)N[C@@H]1CC[C@@H](CCNS(=O)(=O)c2ccccc2F)O[C@@H]1CO | -9[16.7 µM] | 45
C[C@H]1CN([C@@H](C)CO)S(=O)(=O)c2ccc(C#CCN(C)C)cc2O[C@H]1CN(C)Cc1ccccn1 | -19[16.7 µM] | -11
COCC#Cc1cnc2c(c1)C(=O)N([C@@H](C)CO)C[C@H](C)[C@@H](CN(C)C(=O)c1ccc(F)cc1)O2 | 7[16.7 µM] | 4
O=C(C[C@@H]1C[C@H]2c3cc(NC(=O)C4CCC4)ccc3O[C@H]2[C@H](CO)O1)NC1CCCCC1 | 1[16.7 µM] | 10
C[C@H](O)C#Cc1ccc2c(c1)O[C@@H](CN(C)C(=O)Cc1ccccn1)[C@@H](C)CN([C@H](C)CO)S2(=O)=O | -24[16.7 µM] | -8
C[C@H](CO)N1C[C@H](C)[C@@H](CN(C)Cc2ccc3c(c2)OCO3)OCCCC[C@H](C)Oc2ccc(NC(=O)CCCN(C)C)cc2C1=O | 14[16.7 µM] | 5
Cc1noc(C)c1S(=O)(=O)Nc1ccc2c(c1)CC(=O)N([C@H](C)CO)C[C@@H](C)[C@H](CN(C)CC1CC1)O2 | -15[16.7 µM] | 16
C[C@@H]1CN([C@H](C)CO)S(=O)(=O)c2ccc(C#CCN(C)C)cc2O[C@H]1CN(C)C | -5[16.7 µM] | 5
CCCN(C)C[C@@H]1Oc2cc(C#C[C@H](C)O)ccc2S(=O)(=O)N([C@@H](C)CO)C[C@@H]1C | -5[16.7 µM] | 12
CC(C)C#Cc1cnc2c(c1)C(=O)N([C@H](C)CO)C[C@@H](C)[C@@H](CN(C)C(=O)c1ccc3c(c1)OCO3)O2 | 28[16.7 µM] | 0
O=C(N[C@@H]1CC[C@@H](CCNC(=O)C2CCCC2)O[C@@H]1CO)c1ccncc1 | 0[16.7 µM] | -15
O=C(Nc1ccc(C(F)(F)F)cc1)N[C@@H]1CC[C@H](CCn2cc(C3(O)CCCC3)nn2)O[C@H]1CO | -11[16.7 µM] | -9
COC(=O)C[C@H]1C[C@@H]2c3cc(NC(=O)c4cccnc4)ccc3O[C@@H]2[C@H](CO)O1 | 1[16.7 µM] | -1
C[C@H]1CN([C@@H](C)CO)S(=O)(=O)c2ccc(-c3ccc(C#N)cc3)cc2O[C@@H]1CN(C)C(=O)C1CC1 | -37[16.7 µM] | 14
C[C@@H]1CN([C@H](C)CO)C(=O)c2cc(C3=CCCCC3)cnc2O[C@H]1CN(C)C(=O)Nc1cccc(F)c1 | -8[16.7 µM] | 0
COc1ccc(S(=O)(=O)N(C)C[C@@H]2Oc3c(NC(=O)NC(C)C)cccc3C(=O)N([C@H](C)CO)C[C@@H]2C)cc1 | -10[16.7 µM] | -4
CNC[C@@H]1Oc2c(NC(=O)C3CCCCC3)cccc2C(=O)N([C@@H](C)CO)C[C@@H]1C | 2[16.7 µM] | -14
O=C(C[C@H]1C=C[C@@H](NC(=O)Nc2ccc(F)cc2)[C@H](CO)O1)NCc1cccc(F)c1 | -5[16.7 µM] | -3
CCC(=O)N[C@H]1CC[C@@H](CC(=O)NCc2ccccc2OC)O[C@H]1CO | 28[16.7 µM] | -5
O=C(CCN1CCCCC1)N[C@@H]1CC[C@@H](CCNS(=O)(=O)c2ccc(F)cc2)O[C@@H]1CO | -10[16.7 µM] | -1
C[C@@H]1CN([C@H](C)CO)C(=O)c2cc(NC(=O)NC3CCCCC3)ccc2O[C@@H](C)CCCCO[C@@H]1CN(C)Cc1ccccc1 | -8[16.7 µM] | 13

Fetched by compound from the entries so far:
SMILES | HIV Env fusion | Yeast UUG start
COc1ccc(S(=O)(=O)N(C)C[C@@H]2Oc3c(NC(=O)NC(C)C)cccc3C(=O)N([C@H](C)CO)C[C@@H]2C)cc1 | -10[16.7 µM] | -4
O=C(CCN1CCCCC1)N[C@@H]1CC[C@@H](CCNS(=O)(=O)c2ccc(F)cc2)O[C@@H]1CO | -10[16.7 µM] | -1
CCC(=O)N[C@H]1CC[C@@H](CC(=O)NCc2ccccc2OC)O[C@H]1CO | 28[16.7 µM] | -5
C[C@@H]1CN([C@H](C)CO)C(=O)c2cc(C3=CCCCC3)cnc2O[C@H]1CN(C)C(=O)Nc1cccc(F)c1 | -8[16.7 µM] | 0
C[C@H]1CN([C@@H](C)CO)S(=O)(=O)c2ccc(-c3ccc(C#N)cc3)cc2O[C@@H]1CN(C)C(=O)C1CC1 | -37[16.7 µM] | 14
CNC[C@@H]1Oc2c(NC(=O)C3CCCCC3)cccc2C(=O)N([C@@H](C)CO)C[C@@H]1C | 2[16.7 µM] | -14

Going on with the list:
SMILES | HIV Env fusion | Yeast UUG start
O=C(C[C@H]1C[C@@H]2c3cc(NC(=O)c4cccnc4)ccc3O[C@@H]2[C@@H](CO)O1)NCc1ccccn1 | 10[16.7 µM] | -28
C/C=C/c1ccc2c(c1)O[C@H](CN(C)C(=O)CC1CC1)[C@H](C)CN([C@@H](C)CO)S2(=O)=O | 15[16.7 µM] | 6
C[C@H](O)C#Cc1cnc2c(c1)C(=O)N([C@H](C)CO)C[C@@H](C)[C@@H](CN(C)C(=O)Nc1ccc(F)cc1)O2 | -22[16.7 µM] | 2
C[C@@H]1CCCCO[C@H](CN(C)C(=O)Nc2ccc(F)cc2)[C@H](C)CN([C@H](C)CO)C(=O)c2cc(NS(=O)(=O)c3cn(C)cn3)ccc2O1 | -19[16.7 µM] | 4
C[C@H](CO)N1C[C@H](C)[C@@H](CN(C)Cc2cccc(F)c2)Oc2cc(-c3ccc(F)cc3)ccc2S1(=O)=O | 44[16.7 µM] | -1
Cc1ccc(S(=O)(=O)N(C)C[C@H]2OCCCC[C@H](C)Oc3ccc(NS(=O)(=O)c4cccs4)cc3C(=O)N([C@H](C)CO)C[C@@H]2C)cc1 | -30[16.7 µM] | 1
Cc1ccc(S(=O)(=O)N(C)C[C@H]2Oc3ccc(NC(=O)Nc4ccc(C(F)(F)F)cc4)cc3CC(=O)N([C@@H](C)CO)C[C@@H]2C)cc1 | 19[16.7 µM] | -1
Cc1ccc(S(=O)(=O)N(C)C[C@H]2OCCCC[C@H](C)Oc3ccc(NC(=O)CCC(F)(F)F)cc3C(=O)N([C@@H](C)CO)C[C@H]2C)cc1 | 16[16.7 µM] | 18
C[C@@H]1CN([C@@H](C)CO)C(=O)Cc2cc(NS(=O)(=O)c3ccc(F)cc3)ccc2O[C@H]1CN(C)S(=O)(=O)c1ccc(F)cc1 | 15[16.7 µM] | 23
C[C@H](CO)N1C[C@H](C)[C@H](CN(C)C(=O)c2ccccc2)OCCCC[C@H](C)Oc2ccc(NC(=O)c3ccncc3)cc2C1=O | -5[16.7 µM] | 16
Cc1ccc(S(=O)(=O)Nc2cccc3c2O[C@@H](CN(C)C(=O)Nc2ccc(F)cc2)[C@H](C)CN([C@@H](C)CO)C3=O)cc1 | 1[16.7 µM] | 5
COc1ccc(CN(C)C[C@H]2OCCCC[C@@H](C)Oc3ccc(NC(=O)Nc4ccccc4)cc3C(=O)N([C@H](C)CO)C[C@@H]2C)cc1 | 11[16.7 µM] | 13
C[C@@H]1CCCCO[C@@H](CN(C)S(=O)(=O)c2ccc(Cl)cc2)[C@@H](C)CN([C@@H](C)CO)C(=O)c2cc(NC(=O)NC3CCCCC3)ccc2O1 | -11[16.7 µM] | -4
CCCN(C)C[C@@H]1Oc2cc(-c3cccc(OC)c3)ccc2S(=O)(=O)N([C@@H](C)CO)C[C@@H]1C | 5[16.7 µM] | -2
CCCc1cn(CC[C@@H]2CC[C@H](NS(=O)(=O)c3ccccc3Cl)[C@@H](CO)O2)nn1 | -5[16.7 µM] | 43

Profiles, looked up by structure. Screens in order: HIV Env fusion | Yeast UUG start
Record of C[C@H](CO)N1C[C@H](C)[C@@H](CN(C)Cc2cccc(F)c2)Oc2cc(-c3ccc(F)cc3)ccc2S1(=O)=O → 44[16.7 µM] | -1
Record of CCCN(C)C[C@@H]1Oc2cc(-c3cccc(OC)c3)ccc2S(=O)(=O)N([C@@H](C)CO)C[C@@H]1C → 5[16.7 µM] | -2
Record of Cc1ccc(S(=O)(=O)N(C)C[C@H]2OCCCC[C@H](C)Oc3ccc(NC(=O)CCC(F)(F)F)cc3C(=O)N([C@@H](C)CO)C[C@H]2C)cc1 → 16[16.7 µM] | 18

Remaining list, next part:
SMILES | HIV Env fusion | Yeast UUG start
C[C@H]1CN([C@@H](C)CO)C(=O)c2cccc(NS(=O)(=O)c3ccc(Cl)cc3)c2O[C@H]1CN(C)S(=O)(=O)c1ccc(F)cc1 | -21[16.7 µM] | -9
COc1ccc(S(=O)(=O)Nc2ccc3c(c2)C(=O)N([C@H](C)CO)C[C@@H](C)[C@H](CN(C)Cc2ccc(Cl)c(Cl)c2)OCCCC[C@@H](C)O3)cc1 | 19[16.7 µM] | -3
CC(=O)N[C@H]1CC[C@H](CC(=O)NCc2ccc(Cl)cc2)O[C@H]1CO | -17[16.7 µM] | -19
COCCOC(=O)N1C(=O)[C@@]2(c3cc(C#CCCO)ccc31)[C@H](C(N)=O)[C@H]1C(=O)O[C@H](c3ccccc3)[C@H](c3ccccc3)N1[C@@H]2c1ccc(OCCO)cc1 | 5[16.7 µM] | -11
O=C(C[C@@H]1CC[C@@H]2[C@H](COC[C@@H](O)CN2Cc2cc(F)cc(F)c2)O1)NC1CCCC1 | 5[16.7 µM] | -17
C[C@H](CO)N1C[C@H](C)[C@@H](CN(C)S(=O)(=O)c2ccccc2)Oc2ncc(C#Cc3ccccc3F)cc2C1=O | -6[16.7 µM] | -13
CCCNC(=O)N(C)C[C@@H]1Oc2ncc(C3=CCCC3)cc2C(=O)N([C@@H](C)CO)C[C@@H]1C | 0[16.7 µM] | 8
C[C@@H]1CN([C@@H](C)CO)C(=O)c2cc(NC(=O)Nc3ccc(C(F)(F)F)cc3)ccc2O[C@@H]1CN(C)C(=O)Nc1ccc(C(F)(F)F)cc1 | 24[16.7 µM] | -8
COc1ccc(NC(=O)N(C)C[C@H]2Oc3ccc(NC(=O)Nc4ccc(C(F)(F)F)cc4)cc3CC(=O)N([C@@H](C)CO)C[C@@H]2C)cc1 | -15[16.7 µM] | -1
O=C(C[C@H]1C=C[C@@H](NC(=O)CCN2CCCCC2)[C@H](CO)O1)Nc1nccs1 | 11[16.7 µM] | 0
COCC#Cc1cnc2c(c1)C(=O)N([C@H](C)CO)C[C@H](C)[C@@H](CN(C)C(=O)c1cccc(F)c1)O2 | -2[16.7 µM] | 8
COc1ccc(S(=O)(=O)N(C)C[C@H]2OCCCC[C@H](C)Oc3ccc(NC(=O)Nc4ccccc4)cc3C(=O)N([C@H](C)CO)C[C@H]2C)cc1 | 3[16.7 µM] | -27
CCCN(C)C[C@H]1OCCCC[C@@H](C)Oc2ccc(NS(=O)(=O)c3ccc(Cl)cc3)cc2C(=O)N([C@H](C)CO)C[C@@H]1C | 4[16.7 µM] | 9
Cc1ccc(S(=O)(=O)N[C@H]2C=C[C@@H](CC(=O)N3CCc4ccccc4C3)O[C@H]2CO)cc1 | 12[16.7 µM] | 2
C[C@@H]1CCCCO[C@@H](CN(C)S(=O)(=O)c2ccc(Cl)cc2)[C@@H](C)CN([C@H](C)CO)C(=O)c2cc(NS(=O)(=O)c3cccs3)ccc2O1 | 26[16.7 µM] | 5
C[C@H](CO)N1C[C@H](C)[C@H](CN(C)C(=O)Nc2ccc(F)cc2)Oc2ncc(C#CCC3CCCC3)cc2C1=O | -13[16.7 µM] | -3
CN(C)C(=O)C[C@@H]1C[C@H]2c3cc(NC(=O)NC4CCCC4)ccc3O[C@H]2[C@@H](CO)O1 | 4[16.7 µM] | -4
C[C@@H]1CN([C@H](C)CO)S(=O)(=O)c2ccc(Br)cc2O[C@@H]1CN(C)C(=O)CN(C)C | -7[16.7 µM] | 6
N#C[C@@H]1[C@@H](c2ccc(C3=CCCC3)cc2)[C@@H](CO)N1C(=O)c1cccc(F)c1 | -8[16.7 µM] | -1
CC(C)c1cn(CC[C@@H]2CC[C@@H](NC(=O)C3CCCC3)[C@@H](CO)O2)nn1 | 1[16.7 µM] | 6
O=C(C[C@@H]1C=C[C@H](NC(=O)Nc2cccc(F)c2)[C@H](CO)O1)NCC1CC1 | -2[16.7 µM] | -7
CN(C)C(=O)c1ccc(-c2ccc([C@@H]3[C@@H](CO)N(C(=O)C4CCCCC4)[C@H]3C#N)cc2)cc1 | 26[16.7 µM] | 6
C[C@@H]1CCCCO[C@H](CN(C)S(=O)(=O)c2ccc(F)cc2)[C@@H](C)CN([C@@H](C)CO)C(=O)c2cc(NS(C)(=O)=O)ccc2O1 | -5[16.7 µM] | 12
O=C(C[C@H]1CC[C@@H](NC(=O)Nc2ccc(C(F)(F)F)cc2)[C@H](CO)O1)NCc1ccccn1 | -5[16.7 µM] | -21
